# Insulin prom inh – inhibitors of insulin promoter-driven GFP, primary screen, imaging, TRM-6 cells (human fetal islet line), eGFP reporter, cell count; reporter expression induced with tamoxifen; inhibition, % at 2 µM; 130,000 compounds, 0.9% hits; AID 1273, 2008;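 active means inhibition above the mean plus 3 SD, with well images judged a real hit on visual review, cut at about 60% in these data, passing the limit was not always enough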
# GALR2 agonist – GALR2 receptor agonists, primary screen, cell-based. Galanin receptor type 2 (Homo sapiens), O43603. GALR2-expressing cells, agonist activation read-out. activation, %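 (tested at 5 µM)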. 140,000 compounds, 0.48% hits;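 active means above mean plus 3 SD of all compounds, about 5% in these data, not always enough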;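 further: 0% = vehicle buffer wells and 100% = reference agonist at full effect; tested in CHO reporter cells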
# Target sequence (O43603 whole entry, looked up): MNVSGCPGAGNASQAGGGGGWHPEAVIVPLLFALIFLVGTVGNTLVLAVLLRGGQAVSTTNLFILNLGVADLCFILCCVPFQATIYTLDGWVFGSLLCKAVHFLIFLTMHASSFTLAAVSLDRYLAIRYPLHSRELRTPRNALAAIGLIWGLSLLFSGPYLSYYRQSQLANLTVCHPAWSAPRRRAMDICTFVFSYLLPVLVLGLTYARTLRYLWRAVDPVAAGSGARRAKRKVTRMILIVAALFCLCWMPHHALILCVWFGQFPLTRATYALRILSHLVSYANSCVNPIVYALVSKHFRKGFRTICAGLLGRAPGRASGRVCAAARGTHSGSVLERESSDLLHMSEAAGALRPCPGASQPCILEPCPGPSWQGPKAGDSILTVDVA
# PKD1 kinase inh – inhibitors of human PKD1 kinase, biochemical, fluorescence polarization; PKD1 kinase fluorescence polarization assay; 200,000 compounds, 0.056% hits; AID 797, 2007; inhibition, %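 (about 10 µM by stock and volumes)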; Serine/threonine-protein kinase D1 (Homo sapiens), Q15139;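 active means inhibition of 50% or more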;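 further: controls were vehicle for no effect and a reference inhibitor for full effect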
# RGS16-Gao – modulators of RGS16 binding to Galphao, primary screen, biochemical, human proteins, multiplexed bead flow cytometry | Regulator of G-protein signaling 16 (Homo sapiens) + Guanine nucleotide-binding protein … | bead-based flow cytometry RGS16-Galphao binding, fluorescence; actives lie on both sides | binding response (% of control), % at 10 µM | 220,000 compounds, 0.38% hits | AID 1441, 2008;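 active means below 25% or above 175%, edge rows of some plates excepted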;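 further: Galphao activated by GDP with aluminum fluoride before binding; 100% = wells without compound and 0% = beads without RGS; some results beyond the cut were filed as inactive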
# Target sequence (O15492 whole entry, looked up): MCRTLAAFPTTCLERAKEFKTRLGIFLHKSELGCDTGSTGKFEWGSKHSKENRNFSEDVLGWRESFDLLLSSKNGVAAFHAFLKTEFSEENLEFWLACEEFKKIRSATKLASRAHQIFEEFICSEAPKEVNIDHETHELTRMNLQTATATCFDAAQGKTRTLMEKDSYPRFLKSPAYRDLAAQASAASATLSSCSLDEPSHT
# Target sequence (P09471 whole entry, looked up): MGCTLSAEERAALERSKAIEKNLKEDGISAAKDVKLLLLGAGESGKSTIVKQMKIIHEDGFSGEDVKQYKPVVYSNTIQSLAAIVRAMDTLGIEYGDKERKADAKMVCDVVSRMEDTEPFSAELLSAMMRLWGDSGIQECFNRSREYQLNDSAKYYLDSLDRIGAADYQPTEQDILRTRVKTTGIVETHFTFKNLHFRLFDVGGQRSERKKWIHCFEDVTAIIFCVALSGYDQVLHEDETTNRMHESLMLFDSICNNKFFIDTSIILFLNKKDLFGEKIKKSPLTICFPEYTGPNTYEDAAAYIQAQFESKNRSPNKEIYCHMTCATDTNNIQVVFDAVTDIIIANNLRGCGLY
# HSV augment – enhancers of HSV replication in host cells, fold increase, host cell viability. maximum fold increase. HSV replication augmentation in cells. AID 1956, 2009. 220,000 compounds, 0.005% hits;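 active means peak rise of 1.5-fold or more in the series; tested in PC3 cells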;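 further: first round at 10 µM; read as green reporter fluorescence; hits show the peak of a series up to 25 µM; 1 = signal of infected wells without compound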
# Insulin prom inh cell count – further read-out of Insulin prom inh, marked with its call; normalized cell count, %; measured here: cell count, toxicity; reference of the scale not given here;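 cells exposed to compound for 48 h; stained nuclei by imaging scaled within each plate; lower means fewer cells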
# HSV augment primary fold – also measured in HSV augment; calls as there; fold increase; compound at 10 µM; measured here: primary screen fold increase 10 uM; tested in PC3 cells;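 GFP signal in the first replicate; 1 = infected wells without compound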
# * marks the source's active call; other numbers are inactive results; i = inactive; x = not tested or not shown. Random draw from the library. Share with any hit: about 1.3%.
# Below each compound: Insulin prom inh	Insulin prom inh cell count	GALR2 agonist	PKD1 kinase inh	RGS16-Gao	HSV augment	HSV augment primary fold
O=C(CN(Cc1cccs1)S(=O)(=O)c1ccc(S(=O)(=O)N2CCCCC2)cc1)Nc1ccccc1
  21	113	-0.8	-3	98	i	0.73
Cc1sc2c(c1C)CN(C(C)(C)C)CN2C(=O)c1ccccc1
  25	123	-0.4	-6	102	i	1
O=C(COC(=O)CC1CC2CCC1C2)Nc1cccc(S(=O)(=O)NC2=NCCCCC2)c1 (stereo not given)
  -18	118	x	-1	101	i	1
O=C(O)CC(NC(=O)c1ccncc1)c1ccccc1 (stereo not given)
  -30	82	x	-10	99	i	0.91
Nc1nc2c(c(=O)[nH]1)C(c1ccccc1)C1=C(N2)c2ccccc2C1=O (stereo not given)
  x	x	x	x	100	i	0.93
CN1CCc2c(sc3c2c(NCc2ccco2)nc2nnnn23)C1
  x	x	-1.7	0	96	i	1.1
CCOC(=O)c1cnc(-c2ccccc2)nc1N
  95*	142*	-3.4	-6	99	i	1.2
Cc1cc(C)nc(NS(=O)(=O)c2ccc(N3C(=O)C4CC=C(Cl)CC4C3=O)cc2)n1 (stereo not given)
  33	90	0.1	6	101	i	0.73
COc1cccc(NC(=O)NC2CCCCC2C)c1 (stereo not given)
  x	x	x	-4	100	i	1.1
CCOC(=O)CC1=C(C(=O)OCC)C(c2ccncc2)C(C#N)=C(N)O1 (stereo not given)
  x	x	-2.7	3	104	i	1.1
Cc1nc(N)c(Cc2ccccc2F)c(N)n1
  29	137	x	-3	93	i	0.92
CC(C)[C@H](NS(=O)(=O)c1ccccc1)C(=O)OCC(=O)Nc1ccccc1Sc1ccccc1
  -16	76	-1.4	-11	101	i	1
O=C(CCC1CCCN(C(=O)c2ccncc2)C1)NCc1ccc(F)c(F)c1 (stereo not given)
  x	x	x	0	104	i	1.1
Cc1ccsc1C1C(C#N)=C(N)OC2=C1C(=O)CC(C)C2 (stereo not given)
  -29	86	x	-3	108	i	1.1
CCc1ccc(C2CC(c3ccc(Cl)cc3)n3nc(N)nc3N2)cc1 (stereo not given)
  x	x	x	6	94	i	1
N[C@@H](Cc1ccccc1)c1nnc2sc(SCc3ccccc3)nn12
  -41	180	-0.3	-7	97	i	0.99
CCC(CC)C1C(C#N)=C(N)SC(N)=C1C#N
  11	101	-1.6	-1	75	i	1.1
O=C(CCc1ccc(S(=O)(=O)N2CCOCC2)cc1)NN=C1CCCCCCC1
  -53	111	-0.5	12	98	i	0.99
O=C1C(=O)N(CCOCCO)C(c2ccccn2)/C1=C(\O)c1ccccc1 (stereo not given)
  x	x	-2.9	2	99	i	1
CC(NC(=O)C1CCCC1)c1ccc2c(c1)OCCO2 (stereo not given)
  -19	55	-0.5	-1	103	i	0.86
CC(C)(C)OC(=O)NNC(=O)c1ccc(Cl)cc1
  35	105	-3.4	0	104	i	0.86
C=CCOc1c(Cl)cc(CNc2ccc(C)c(Cl)c2)cc1OC
  -35	21	0.8	-3	109	i	0.65
CCOc1ccc(S(=O)(=O)N2CCN(C(=S)NCc3ccccc3)CC2)cc1
  x	x	x	x	97	i	0.93
O=C(O)Cn1cc(C(=S)N2CCCCC2)c2ccccc21
  x	x	x	-6	101	i	0.89
Cc1nc(NC(=O)c2ccccc2)sc1-c1csc(Nc2ccc(Cl)cc2Cl)n1
  38	132	-0.5	-7	99	i	1
O=C(CNC(=O)c1ccc(Cl)cc1Cl)OCC(=O)c1ccc2c(c1)OCCO2
  -41	127	-1.6	1	102	i	1
CCc1ccc2c(c1)C1(NN=C(c3cccc4ccccc34)S1)C(=O)N2 (stereo not given)
  -381	60	0.9	4	106	i	0.8
Cc1nn(CC(=O)Nc2ccc(S(=O)(=O)N(C)C)cc2)c(C)c1[N+](=O)[O-]
  -17	122	-2.4	-1	98	i	0.91
CC(C)(CNC(=O)c1cc(=O)[nH]c2ccccc12)N1CCOCC1
  -26	132	-1.4	-5	107	x	x
COc1ccc(OCC(=O)OCCN(C)C)cc1
  58	129	-0.7	-4	109	i	0.9

# At a glance, 13 of the compounds above:
# Below each compound: Insulin prom inh	Insulin prom inh cell count	GALR2 agonist	PKD1 kinase inh	RGS16-Gao	HSV augment	HSV augment primary fold
CN1CCc2c(sc3c2c(NCc2ccco2)nc2nnnn23)C1
  x	x	-1.7	0	96	i	1.1
CCOC(=O)c1cnc(-c2ccccc2)nc1N
  95*	142*	-3.4	-6	99	i	1.2
Cc1cc(C)nc(NS(=O)(=O)c2ccc(N3C(=O)C4CC=C(Cl)CC4C3=O)cc2)n1 (stereo not given)
  33	90	0.1	6	101	i	0.73
COc1cccc(NC(=O)NC2CCCCC2C)c1 (stereo not given)
  x	x	x	-4	100	i	1.1
CCOC(=O)CC1=C(C(=O)OCC)C(c2ccncc2)C(C#N)=C(N)O1 (stereo not given)
  x	x	-2.7	3	104	i	1.1
Cc1nc(N)c(Cc2ccccc2F)c(N)n1
  29	137	x	-3	93	i	0.92
CC(C)[C@H](NS(=O)(=O)c1ccccc1)C(=O)OCC(=O)Nc1ccccc1Sc1ccccc1
  -16	76	-1.4	-11	101	i	1
O=C(CCC1CCCN(C(=O)c2ccncc2)C1)NCc1ccc(F)c(F)c1 (stereo not given)
  x	x	x	0	104	i	1.1
Cc1ccsc1C1C(C#N)=C(N)OC2=C1C(=O)CC(C)C2 (stereo not given)
  -29	86	x	-3	108	i	1.1
CCc1ccc(C2CC(c3ccc(Cl)cc3)n3nc(N)nc3N2)cc1 (stereo not given)
  x	x	x	6	94	i	1
N[C@@H](Cc1ccccc1)c1nnc2sc(SCc3ccccc3)nn12
  -41	180	-0.3	-7	97	i	0.99
CCC(CC)C1C(C#N)=C(N)SC(N)=C1C#N
  11	101	-1.6	-1	75	i	1.1
O=C(CCc1ccc(S(=O)(=O)N2CCOCC2)cc1)NN=C1CCCCCCC1
  -53	111	-0.5	12	98	i	0.99

# The list goes on:
# Below each compound: Insulin prom inh	Insulin prom inh cell count	GALR2 agonist	PKD1 kinase inh	RGS16-Gao	HSV augment	HSV augment primary fold
CCOC(=O)c1c(NC(=O)Cn2c(=O)oc3ccccc32)oc(C)c1C(C)=O
  53	108	-3.3	-11	106	i	0.97
O=S(=O)(c1ccc(F)c2ccccc12)N1CCCCC1
  -6	102	0.0	4	99	i	0.88
Cn1nnc2cc(C(=O)NCc3ccc4c(c3)OCO4)ccc21
  -18	91	-3.9	4	103	i	0.94
COC(=O)c1ccc2[nH]c(C)cc(=O)c2c1
  x	x	-2.3	1	98	i	0.95
N/C(=N\N=C\c1cccc(O)c1)c1nonc1N
  x	x	x	-3	96	i	0.95
Cc1cc(NC(=O)Nc2cc(F)ccc2F)no1
  x	x	x	x	102	i	0.99
Cc1ccc(S(=O)(=O)NCC(=O)OCC(=O)c2cc(C)n(-c3ccccc3)c2C)cc1
  14	89	0.5	11	106	i	1
COc1cc(CN2CCN(c3cccc(C)c3C)CC2)cc([N+](=O)[O-])c1O
  x	x	x	-4	107	i	1
CCOC(=O)N1CCN(C(=O)CN(c2ccccc2OC)S(=O)(=O)c2ccc(OC)cc2)CC1
  x	x	x	-9	115	i	1
COc1ccc(C(C(=O)NC2CCCCC2)N(C(=O)CCCC(=O)Nc2ccccn2)c2ccc3c(c2)OCCO3)cc1 (stereo not given)
  -38	151	0.0	-5	110	i	0.89
Oc1ccc(Br)cc1-c1cc(-c2ccccc2Cl)[nH]n1
  x	x	x	x	98	i	1
O=S(=O)(Nc1nccs1)c1ccc(Cl)cc1
  9	106	-0.5	-2	108	i	1.2
COc1ccc2c(Cl)c(C(=O)NC3CCS(=O)(=O)C3)sc2c1 (stereo not given)
  30	97	-1.0	-2	89	i	0.95
Cc1ccc(CNC(=O)Cn2cccc2C(=O)c2ccccc2C)cc1
  x	x	x	4	104	i	1
C/C=C/C=C/C(=O)N1CC2(CC(c3cccc(NC(=O)CCCCC)c3)=NO2)C[C@H]1C(N)=O (stereo not given in full)
  x	x	x	x	88	i	1
O=C(/C(=C(\O)c1ccccc1)c1ncc[nH]1)c1ccccc1
  x	x	x	2	99	i	1
C[C@H](CCC(=O)O)[C@H]1CC[C@H]2[C@@H]3C(=O)C[C@@H]4CC(=O)CC[C@]4(C)[C@H]3CC(=O)[C@]12C
  -52	57	-1.8	-3	100	i	0.7
CCOC(=O)c1c(-c2ccccc2)csc1NC(=O)CSc1nc(C)cc(C)n1
  31	87	0.1	3	117	i	0.83
O=C(Oc1ccc(-c2csnn2)cc1)C1CC1
  x	x	x	x	100	i	0.87
CC(=O)c1cccc(NC2c3ccccc3C(=O)N2Cc2ccco2)c1 (stereo not given)
  x	x	x	x	98	i	0.97
CCN1CCN(C(=S)NCCc2ccccc2)CC1
  -22	106	-1.6	-3	97	i	0.98
Cn1c(=O)cc(SCC(=O)N2CCCC2)c2ccc(Cl)cc21
  -53	42	-3.6	-13	101	i	0.89
O=C(O)C1CCN(S(=O)(=O)N2CCOCC2)CC1
  x	x	-1.5	-3	102	i	0.75
COc1ccc(C(C(=O)NC2CCCCC2)N(Cc2cccs2)C(=O)Cc2c[nH]c3ccccc23)cc1OC (stereo not given)
  -34	135	-0.5	-3	97	i	0.87
Cc1ccc(S(=O)(=O)CC(=O)Nc2c(C)n(C)n(-c3ccccc3)c2=O)cc1
  x	x	x	2	98	i	1
COCCOC(=O)C1=C(C)NC(=O)NC1c1ccc(Cl)cc1 (stereo not given)
  x	x	-3.1	-2	92	i	0.85
CCCCCC(=O)OCCc1c(C)nc2nc[nH]n2c1=O
  x	x	x	5	99	i	1.1
O=C(NCCN1CCOCC1)C1CCN(c2nc3ccccc3o2)CC1
  x	x	-1.3	3	100	i	0.88
C=CCn1c(=O)c2ccccc2n2c(Sc3nnnn3-c3ccccc3)nnc12
  x	x	-1.0	-12	102	i	1.1
O=C1CN(C(=O)CSc2nc3cc(Cl)ccc3c(=O)n2Cc2ccccc2)c2ccccc2N1
  x	x	0.0	-2	98	i	0.77

# (listing goes on)
# Abbreviations – A = Insulin prom inh; B = Insulin prom inh cell count; C = GALR2 agonist; D = PKD1 kinase inh; E = RGS16-Gao; F = HSV augment; G = HSV augment primary fold
> O=C(CSc1ccccn1)N1CCc2ccccc21
  A: 57	B: 48	C: x	D: 2	E: 17	F: i	G: 0.9
> Cn1c(SCc2ccc(F)cc2)nnc1-c1cnccn1
  A: x	B: x	C: x	D: x	E: 113	F: i	G: 0.93
> Cc1ccccc1NC(=O)c1ccc(F)c(S(=O)(=O)N2CCN(c3ccccn3)CC2)c1
  A: x	B: x	C: 0.5	D: 8	E: 81	F: i	G: 1.1
> CC(NC(=O)CSc1nc2ccc(N)cc2s1)c1ccccc1 (stereo not given)
  A: 20	B: 99	C: x	D: -4	E: 106	F: i	G: 0.88
> CC(=O)COc1ccc2c3c(c(=O)oc2c1)CCCC3
  A: x	B: x	C: -1.6	D: -16	E: 102	F: i	G: 1
> Cn1ccnc1SCC(=O)c1cccc(Br)c1
  A: 21	B: 62	C: -1.9	D: -5	E: 100	F: i	G: 0.9
> CC(C)COC(=O)Nc1nnc(Cc2ccccc2)s1
  A: -19	B: 36	C: x	D: -2	E: 103	F: i	G: 0.92
> CS(=O)(=O)N1CCN(c2c(Cl)cccc2[N+](=O)[O-])CC1
  A: -23	B: 109	C: -2.4	D: -1	E: 104	F: i	G: 0.8
> O=C(NC(C(=O)O)c1ccccc1)c1ccccc1 (stereo not given)
  A: -3	B: 114	C: -1.4	D: -4	E: 104	F: i	G: 1.1

# Source: PubChem BioAssay
